# Source: PubChem BioAssay (National Center for Advancing Translational Sciences (NCATS))
# AID923: qHTS Assay for Allosteric/Competitive Inhibitors of Caspase-1: Spectroscopic Profiling in AFC Spectral Region; compound fluorescence, AFC spectral region (405/520 nm); almost no hit is shown here; Potency, µM (highest dose often 57.5 µM), for inactives: top-dose fluorescence increase, usual class: activators; hit rate 1.1% among 75,000; AID 923, 2007; active = well fitted activation curve with a large enough effect; inconclusive = small, poorly fitted or top-dose-only effect;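 note: potency is the fitted concentration of half-maximal effect; 0% is about no effect; scaled to a free AFC standard on each plate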
#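 Baseline compound fluorescence (AFC region, 405 nm ex/520 nm em) taken from the intercept of kinetic reads with 50 nM caspase-1 and 5 uM Ac-WEHD-AFC; normalized to an on-plate AFC standard curve; compounds titrated up to 57 uM.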
# Resorufin fluor: qHTS Assay for Spectroscopic Profiling in Resorufin Spectral Region; hit rate 0.04% among 59,000; Compound fluorescence, resorufin region 547/598 nm, buffer; stronger effect = higher value; max dye-equivalent concentration, M; active = above 10 nM dye equivalent; inconclusive = 1 to 10 nM; inactive = 1 nM or less; a few of its hits are not listed in these tables; note: highest value over a series up to 38 µM
#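 Tris 100 mM pH 8.0; compound added, 15 min RT; CCD imager read, ex 547 nm/em 598 nm; signal normalized to resorufin standard curve (six concentrations per plate) as dye-equivalent concentration.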
# A488 fluor: qHTS Assay for Spectroscopic Profiling in A488 Spectral Region. hit rate 0.1% among 59,000. max dye equivalency, M. compound autofluorescence, A488 spectral region, dye equivalency; stronger effect = higher value; active = above 10 nM dye equivalent; inconclusive = 1 to 10 nM; inactive = 1 nM or less; about half of its hits are not listed in these tables;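 note: highest value over a series up to 38 µM; compound alone in buffer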
#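 Autofluorescence read at ex 480/em 540 nm after 15 min RT in 100 mM Tris pH 8.0; compound signal normalized to A488 standard series on each plate, reported as dye-equivalent concentration at each test concentration.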
# TSHR ag: qHTS Assay for Agonists of the Thyroid Stimulating Hormone Receptor; Potency, µM (doses to about 57.1 µM), inactives show at the highest dose activation, most hits filed as activators; Thyrotropin receptor (Homo sapiens), P16473; hit rate 0.48% among 73,000; HEK293-CNG-TSHR cells (CNG channel as cAMP sensor), membrane potential dye, cAMP; active = well fitted activation curve of enough size with the parental cells flat; inconclusive = any curve in the parental cells; inactive = parental cells flat and receptor cells flat or falling; note: potency is the fitted concentration of half-maximal effect; % of control where 0% means no effect; weak receptor curves with flat parental cells got no call and are not listed
# Target sequence (P16473 whole entry, looked up): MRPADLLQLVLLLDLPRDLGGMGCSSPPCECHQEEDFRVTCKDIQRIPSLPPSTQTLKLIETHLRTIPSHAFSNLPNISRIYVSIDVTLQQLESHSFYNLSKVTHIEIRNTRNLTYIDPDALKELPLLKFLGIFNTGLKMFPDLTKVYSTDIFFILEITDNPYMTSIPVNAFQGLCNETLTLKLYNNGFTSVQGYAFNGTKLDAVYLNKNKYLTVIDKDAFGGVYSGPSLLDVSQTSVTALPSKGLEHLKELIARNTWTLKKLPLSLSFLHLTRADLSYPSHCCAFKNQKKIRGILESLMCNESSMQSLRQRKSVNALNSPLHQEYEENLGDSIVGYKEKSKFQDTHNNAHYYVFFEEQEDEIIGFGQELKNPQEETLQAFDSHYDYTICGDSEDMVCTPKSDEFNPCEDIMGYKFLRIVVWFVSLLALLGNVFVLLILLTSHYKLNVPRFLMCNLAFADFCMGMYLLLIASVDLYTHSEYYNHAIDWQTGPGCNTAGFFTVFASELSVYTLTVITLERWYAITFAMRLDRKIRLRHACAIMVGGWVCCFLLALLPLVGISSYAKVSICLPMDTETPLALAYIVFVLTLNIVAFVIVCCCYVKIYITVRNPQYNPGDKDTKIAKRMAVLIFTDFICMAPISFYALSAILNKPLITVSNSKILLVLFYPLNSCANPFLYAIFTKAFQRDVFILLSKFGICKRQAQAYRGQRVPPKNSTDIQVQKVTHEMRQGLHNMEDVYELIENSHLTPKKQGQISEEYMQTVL
#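 HEK 293 cells stably expressing TSHR and a modified CNG channel, with CNG-only parental cells as counterscreen, were preloaded 60 min at room temperature with membrane potential dye containing 100 uM RO 20-1724. Compound exposure was 30 min, and depolarization was read as fluorescence at 590 nm.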
# A647 fluor: qHTS Assay for Spectroscopic Profiling in A647 Spectral Region | AID 592, 2007 | 59,000 tested, under 10 active | max dye-equivalent concentration, M | Compound fluorescence, A647 channel (570/671 nm), Tris buffer; active means above 1 µM dye equivalent; inconclusive means 0.1 to 1 µM; inactive means 0.1 µM or less;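 note: values scaled relative to a standard on each plate; highest value over a series up to 38 µM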
#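 Spectral profiling of library compounds in pH 8.0 Tris: 15 min room-temperature incubation, single ex/em pair (570/671 nm), response normalized to Alexa 647 equivalents.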
# Numbers without * were called inactive; i = inactive; ? = inconclusive; . = no result given; [ ] = another dose, or the depositor's remark. This is a subset (hit frequency here may not be typical).
Molecule,AID923,Resorufin fluor,A488 fluor,TSHR ag,A647 fluor
O=C(CN1CCN(C(=O)c2ccccc2)CC1)Nc1ccc(Br)cn1,-0.4%,i,i,?,3.4e-08
O=C(NCCCN1CCOCC1)C1(c2ccccc2)CCCC1,-1.6%,i,i,4%,2.9e-09
COc1cc(C)nc(OCCNS(=O)(=O)c2cc(C)ccc2C)n1,0.9%,i,i,0%[11.4 µM],2.5e-08
Cc1cc(-c2nnc(SCc3ccccn3)o2)no1,-0.8%,i,i,4%,6.5e-09
Cc1cccn2c(=O)c(C=Nc3ccc(Cl)cc3)c(NCCO)nc12,9.2%,i,i,?,1.5e-08
CC1(C)CC(=O)C(C=NCCN2CCN(C(=O)NC34CC5CC(CC(C5)C3)C4)CC2)=C(O)C1,-1.4%,.,.,-10%,.
O=c1c2c(nc3nc(Cc4ccccc4)[nH]n13)CCC2,-1.2%,i,i,10%,2.5e-08
CCOc1ccc2nc(NC(=O)CS(=O)(=O)c3ccccc3)sc2c1,-0.6%,i,i,-5%,2.3e-09
COCCCNC(=O)CCn1c(=O)c2ccccc2n(CC(=O)Nc2ccccc2C)c1=O,-0.5%,i,i,.,1.3e-08
CCCCCCC(=O)N(O)C1CC(=O)N(c2ccc(Br)cc2)C1=O (centres undefined),0.8%,i,i,6%,2.3e-08

# Next section (4 carried over from the part before).
Molecule,AID923,Resorufin fluor,A488 fluor,TSHR ag,A647 fluor
O=c1c2c(nc3nc(Cc4ccccc4)[nH]n13)CCC2,-1.2%,i,i,10%,2.5e-08
CCOc1ccc2nc(NC(=O)CS(=O)(=O)c3ccccc3)sc2c1,-0.6%,i,i,-5%,2.3e-09
COCCCNC(=O)CCn1c(=O)c2ccccc2n(CC(=O)Nc2ccccc2C)c1=O,-0.5%,i,i,.,1.3e-08
CCCCCCC(=O)N(O)C1CC(=O)N(c2ccc(Br)cc2)C1=O (centres undefined),0.8%,i,i,6%,2.3e-08
CS(=O)(=O)N1CCN(Cc2ccccc2C(F)(F)F)CC1,-0.2%,.,.,11%,.
COc1ccc(NC(=O)COC(=O)c2ccc(Br)o2)cc1OC,0.0%,i,i,0%,1.1e-08
CCOC(=O)c1sc(NC(=O)C2CCCO2)c(C(=O)OCC)c1C (centres undefined),-2.8%,.,.,?,.
CO[C@H]1COC(=O)C/C=C\[C@@H](C)[C@H](OC)COC(=O)[C@H]2CCCN2C(=O)C/C=C\[C@@H]1C,-0.4%[11.5 µM],.,.,-7%[11.4 µM],.
CCc1nccn1S(=O)(=O)c1ccc(OC)c(OC)c1,-1.5%,.,.,10%,.
C[C@H](O)C(=O)Nc1c(I)c(C(=O)NC(CO)CO)c(I)c(C(=O)NC(CO)CO)c1I,-2.5%[25.7 µM],i,i,-13%[25.6 µM],1e-09
COC(=O)c1cccnc1-n1c(=O)c2cccnc2n(Cc2cccc(OC)c2)c1=O,-2.4%,.,.,4%,.
COc1ccc(C(=O)Cn2nnc(-c3cccs3)n2)cc1,-1.4%,i,i,-4%,1e-09
CN(C)c1ccc(-c2cncnc2NCc2cccnc2)cc1,-0.2%,i,i,0%,3e-09
CN1CCOc2cc(S(=O)(=O)Nc3ccc(F)cc3)ccc21,-0.2%,i,i,-8%,1e-09

# The list continues:
Molecule,AID923,Resorufin fluor,A488 fluor,TSHR ag,A647 fluor
COCCCNC(=O)CCC(=O)Nc1ccc2nc(N3CCOCC3)cc(C)c2c1,-4.3%,i,i,1%,5.8e-09
O=C(c1ccc(S(=O)(=O)N2CCC(c3nc4ccccc4s3)CC2)cc1)N1CCOCC1,0.4%,i,i,?,8.3e-09
COc1cccc(NC(=O)CSc2nc3ccccc3c(=O)n2CCCC(=O)N2CCCC2)c1,-2.6%,i,i,8%,1.9e-08
Cc1cc(N2CCCC2)n2nc(C)nc2n1,-2.2%,.,.,-1%,.
Cc1cccc(C)c1NC(=O)Cn1c(=O)n(CCC(=O)NCc2ccco2)c(=O)c2sccc21,-0.4%,i,i,5%,1.2e-08
Cc1noc(C)c1CSc1ncnc2ccccc12,0.2%,i,i,12%,1e-09
O=S(=O)(c1ccccc1)N1CCC2(CCN(Cc3ccncc3)CC2)CC1,-0.4%,i,i,.,1.1e-09
COc1ccc2c(c1)OC13CCN(C)CC1C2C(C(=O)c1ccc(F)cc1)C(=O)N3 (centres undefined),-1.0%,.,.,7%,.
Cc1oc(/N=C/c2ccc3c(c2)OCO3)c(C#N)c1C,1.4%,.,.,3%,.
c1ccc(CO[C@H]2NCCN2Cc2ccccc2)cc1,-1.7%[11.5 µM],i,i,12%[11.4 µM],2.1e-08

# (continued)
Molecule,AID923,Resorufin fluor,A488 fluor,TSHR ag,A647 fluor
CCOC(=O)c1ccc2ncc(C(=O)OCC)c(NCCN(C)C)c2c1,0.6%,.,.,3%,.
COc1ccc(Cl)cc1NC(=O)CSc1nnc(Cc2cccn2C)n1-c1ccc(F)cc1,0.0%,.,.,3%,.
O=C(CN1CCOCC1)Nc1ncccn1,1.9%,.,.,-2%,.
c1ccc(-c2nc3nonc3c3nc4ccccc4n23)cc1,-1.3%,i,i,1%,1.4e-08
COc1ccc(OC)c(C2/C(=C(/O)c3ccc(C)cc3)C(=O)C(=O)N2Cc2ccco2)c1 (centres undefined),.,i,i,.,2.5e-08
O=C(O)c1ccccc1-c1ccccc1C(=O)Nc1ccc2c(c1)Cc1ccccc1-2,-3.4%[11.5 µM],i,i,.,7.4e-09
Cc1cc(Cl)c(S(=O)(=O)NC(C(=O)O)c2ccccc2)cc1OCC(N)=O (centres undefined),-1.8%,i,i,1%,7.3e-08
Nc1nc(-c2cccs2)cs1,2.1%[11.5 µM],i,i,-3%[11.4 µM],1.3e-08
Oc1c([C@H](Nc2ccccn2)c2ccccc2)ccc2cccnc12,4.0%[11.5 µM],i,i,1%[11.4 µM],2.4e-08
CCn1c(N2CCN(CC(=O)c3c[nH]c4ccccc34)CC2)nc2c1c(=O)[nH]c(=O)n2C,-1.6%,i,i,0%,1.3e-08

# Other results follow:
Molecule,AID923,Resorufin fluor,A488 fluor,TSHR ag,A647 fluor
COc1cccc(C(=O)N2CCN(C(=O)c3cccc(F)c3)CC2)c1,1.0%,i,i,-17%,2.2e-09
COc1cc2nc(=S)n3[nH]c(CCn4nc(C)cc4C)nc3c2cc1OC,0.6%,i,i,13%,2.9e-09
CCn1cnc2c1c(=O)n(Cc1csc(-c3ccccc3)n1)c(=O)n2Cc1ccccc1,0.6%,i,i,15%,3e-08
CC1CCN(S(=O)(=O)c2ccc3[nH]cc(C(=O)NCCN4CCOCC4)c(=O)c3c2)CC1,2.9%,i,i,10%,1e-09
CCOC(=O)CCNC(=O)CNC(=O)OCc1ccccc1,0.9%,i,i,2%[11.4 µM],1e-09
O=C1Nc2ccccc2C12OCCCCO2,0.1%,i,i,3%,2.3e-08
Cc1ccc2c(c1)nnn2C1CCN(CC(=O)N2c3ccccc3CC2C)CC1 (centres undefined),1.5%,i,i,13%,1e-09
CCCNS(=O)(=O)c1ccc(CCC(=O)NCc2cccnc2)cc1,-0.4%,i,i,-2%,4.6e-08
COC(=O)c1cc(-c2c[nH]c3ccccc23)n[nH]1,-1.7%,i,i,-16%,1.5e-08
CC(=O)O[C@@H]1[C@H]([N+]2(C)CCCCC2)C[C@@H]2[C@@H]3CC[C@@H]4C[C@@H](OC(C)=O)[C@H]([N+]5(C)CCCCC5)C[C@@]4(C)[C@H]3CC[C@]21C,-2.0%,i,i,2%,1.7e-08

# (continued)
Molecule,AID923,Resorufin fluor,A488 fluor,TSHR ag,A647 fluor
CCC(C(=O)N1CCN(c2ccccn2)CC1)n1nc(C)n2c(cc3occc32)c1=O (centres undefined),-1.6%,.,.,29%,.
CCOC(=O)N1CCN(C(=O)C(CC)n2nc(C)c3sc4ccccc4c3c2=O)CC1 (centres undefined),3.1%,i,i,14%,1e-09
O=C(O)CCc1ccc(-c2ccc(Br)cc2)n1CC(=O)O,-0.6%,.,.,0%[11.4 µM],.
COc1ccc(S(=O)(=O)Nc2ccc(Cl)cn2)c(C)c1C,-3.1%,i,i,5%,5.1e-09
Cc1ccc(C)c(N2CCN(C(=O)c3ccc(NS(=O)(=O)c4c(C)noc4C)cc3)CC2)c1,-0.2%,i,i,?,5e-09
CCOC(=O)C1CCN(c2nc(C)nc3c2oc2ccccc23)CC1,-0.1%,i,i,11%,3.8e-08
CCOC(=O)c1c(NC(=O)CSc2nc3cccnc3n2C)sc(C(C)=O)c1C,0.1%,i,i,?,2.8e-08
COc1ccc(-c2noc(-c3ccc(Cl)cc3)n2)cc1,-0.6%,i,i,5%,1.8e-09
CC(=O)c1ccc(OCC(O)Cn2nnc3ccccc32)cc1 (centres undefined),1.9%,.,.,3%,.
Cc1ccc(C(=O)NC=C(Cl)Cl)cc1,-1.2%,i,i,5%,6.3e-09

# (list continues)
Molecule,AID923,Resorufin fluor,A488 fluor,TSHR ag,A647 fluor
CCOc1cc(S(=O)(=O)NCc2ccc3c(c2)OCO3)ccc1F,-1.2%,i,i,?,5.1e-09
CC(C)CC1(C(=O)NCCc2c[nH]c3ccccc23)C=CCN1C(=O)c1ccccc1 (centres undefined),2.4%,.,.,?,.
Cc1cccc(C)c1NC(=O)CCCSc1nnc(-c2ccco2)n1-c1ccccc1,0.1%,i,i,?,2.8e-09
O=C1c2cccc(O)c2C(=O)c2c(O[C@@H]3O[C@H](CO)[C@@H](O)[C@H](O)[C@@H]3O)cccc21,-1.4%[11.5 µM],i,i,-3%[11.4 µM],1e-09
Cc1ccc(-c2nnc(SCC#N)n2N)cc1,-1.0%,i,i,-1%,4.3e-08
CSc1nsc(SCC(=O)Nc2cccc(C(C)=O)c2)n1,-2.5%,i,i,?,6.9e-09
CCOC(=O)c1cc(NC(=O)N2CCOCC2)c(C)nc1C,0.7%,i,i,0%,3e-08
c1coc(CNc2nc3nonc3nc2NCc2ccco2)c1,10%,i,i,26%,1.6e-08
CCC(=O)N(CCO)Cc1cc2ccc(C)c(C)c2[nH]c1=O,-1.1%,i,i,-6%,4.8e-08
N#Cc1cnc(SCC(=O)Nc2ccccc2C(F)(F)F)nc1N,2.5%,i,i,16%,1.8e-08

# The results go on.
Molecule,AID923,Resorufin fluor,A488 fluor,TSHR ag,A647 fluor
C/C(N)=C(/C#N)C(=O)COC(=O)CCSc1ccccc1,0.4%,i,i,3%,1.1e-08
NC(=O)c1ccsc1NC(=O)CN1C(=O)C2CC=CCC2C1=O (centres undefined),0.5%,i,i,1%,4.5e-08
O=C(NC1CCCCC1)NC1CCN(CC(=O)N2CCOCC2)CC1,0.5%,i,i,8%,3.9e-08
CCCOC(=O)c1ccc(-c2c(C)noc2-c2ccc(OC)cc2O)o1,1.6%,i,i,4%,1.3e-08
Cc1ccc(NC(=O)CN2C(=O)C(C)Oc3ccccc32)nc1 (centres undefined),1.0%,i,i,-2%,1.9e-08
COc1ccccc1NC(=O)C1=C(C)Nc2nnnn2C1c1cccc(Br)c1 (centres undefined),-0.8%,i,i,-7%,2e-08
CCCCOCCOCCSC#N,1.6%,.,.,-4%,.
COc1ccc2c(c1)c(CC(=O)O)c(C)n2Cc1ccc(Cl)cc1,-2.9%,i,i,?,4.6e-08
Nc1nc(-c2cccnc2)nn1C(=O)CCc1ccccc1,-1.3%,i,i,21%,2e-08
COc1ccc(OC)c(C(=O)CSc2nc3cccnc3n2C)c1,-0.5%,i,i,?,1e-08
CC1(C)CC(=O)C=C(NCCN2CCN(C(=O)Nc3ccc(Cl)cc3)CC2)C1,-1.7%,.,.,4%,.
CCOc1ccc(S(=O)(=O)N2Cc3ccccc3CC2C(=O)NCCCn2ccnc2)cc1 (centres undefined),-0.2%,i,i,13%,8.6e-09
